# AID923 – qHTS Assay for Allosteric/Competitive Inhibitors of Caspase-1: Spectroscopic Profiling in AFC Spectral Region. compound fluorescence, AFC spectral region (405/520 nm); almost no hit is shown here. Potency, µM (doses to about 57.5 µM), for inactives: at the highest dose fluorescence increase, hits mostly activators. 75,000 compounds, 1.1% hits; active means well fitted activation curve with a large enough effect; inconclusive means small, poorly fitted or top-dose-only effect;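 further: potency means the concentration at half of the fitted maximal effect; 0% is about no effect; scaled to a free AFC standard on each plate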
#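 Titrations up to 57 uM read every 20 sec for 3 min (405/520 nm) with 50 nM caspase 1 and 5 uM Ac-WEHD-AFC, pH 7.5 HEPES buffer. Fluorescence-vs-time intercept gave baseline, scaled against on-plate AFC standard.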
# A488 autofl – qHTS Assay for Spectroscopic Profiling in A488 Spectral Region. compound autofluorescence, A488 spectral region, dye equivalency; active compounds read high. max dye equivalency, M. 59,000 compounds, 0.1% hits; active = above 10 nM dye equivalent; inconclusive = 1 to 10 nM; inactive = 1 nM or less; about half of its hits are not listed in these tables;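 further: highest value over a series up to 38 µM; compound alone in buffer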
#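 Readout is A488 dye-equivalent concentration, calibrated by a per-plate six-point Alexa 488 series. Compounds in 100 mM Tris buffer pH 8.0 were incubated 15 min at room temperature. Plates were imaged using 480 nm excitation/540 nm emission filters.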
# Resorufin fluor – qHTS Assay for Spectroscopic Profiling in Resorufin Spectral Region; Compound fluorescence, resorufin region 547/598 nm, buffer; active compounds read high; max dye-equivalent concentration, M; 59,000 compounds, 0.04% hits; active = above 10 nM dye equivalent; inconclusive = 1 to 10 nM; inactive = 1 nM or less; a few of its hits are not listed in these tables; further: highest value over a series up to 38 µM
#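 Intrinsic fluorescence profiled in the resorufin window (ex 547 nm, em 598 nm) after 15 min at room temperature in pH 8.0 Tris buffer (100 mM); responses normalized against a six-point resorufin standard series as dye-equivalent concentration.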
# A647 autofl – qHTS Assay for Spectroscopic Profiling in A647 Spectral Region; Compound fluorescence, A647 channel (570/671 nm), Tris buffer; max dye-equivalent concentration, M; 59,000 tested, under 10 active; AID 592, 2007; active means above 1 µM dye equivalent; inconclusive means 0.1 to 1 µM; inactive means 0.1 µM or less;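 further: values scaled relative to a standard on each plate; highest value over a series up to 38 µM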
#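 Compound fluorescence was measured in 100 mM Tris buffer, pH 8.0, after 15 min at room temperature, using 570 nm excitation and 671 nm emission filters. Signal was normalized to a per-plate Alexa 647 standard curve and expressed as dye-equivalent concentration at each compound concentration.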
# TSHR ag – qHTS Assay for Agonists of the Thyroid Stimulating Hormone Receptor; 73,000 compounds, 0.48% hits; Potency, µM (titrated, usually from 57.1 µM), for inactives: at the top dose activation, usual class: activators; HEK293-CNG-TSHR cells (CNG channel as cAMP sensor), membrane potential dye, cAMP; Thyrotropin receptor (Homo sapiens), P16473; active = well fitted activation curve of enough size with the parental cells flat; inconclusive = any curve in the parental cells; inactive = parental cells flat and receptor cells flat or falling; further: potency means the concentration at half of the fitted maximal effect; % of control where 0% means no effect; weak receptor curves with flat parental cells got no call and are not listed
# Target sequence (P16473 whole entry, looked up): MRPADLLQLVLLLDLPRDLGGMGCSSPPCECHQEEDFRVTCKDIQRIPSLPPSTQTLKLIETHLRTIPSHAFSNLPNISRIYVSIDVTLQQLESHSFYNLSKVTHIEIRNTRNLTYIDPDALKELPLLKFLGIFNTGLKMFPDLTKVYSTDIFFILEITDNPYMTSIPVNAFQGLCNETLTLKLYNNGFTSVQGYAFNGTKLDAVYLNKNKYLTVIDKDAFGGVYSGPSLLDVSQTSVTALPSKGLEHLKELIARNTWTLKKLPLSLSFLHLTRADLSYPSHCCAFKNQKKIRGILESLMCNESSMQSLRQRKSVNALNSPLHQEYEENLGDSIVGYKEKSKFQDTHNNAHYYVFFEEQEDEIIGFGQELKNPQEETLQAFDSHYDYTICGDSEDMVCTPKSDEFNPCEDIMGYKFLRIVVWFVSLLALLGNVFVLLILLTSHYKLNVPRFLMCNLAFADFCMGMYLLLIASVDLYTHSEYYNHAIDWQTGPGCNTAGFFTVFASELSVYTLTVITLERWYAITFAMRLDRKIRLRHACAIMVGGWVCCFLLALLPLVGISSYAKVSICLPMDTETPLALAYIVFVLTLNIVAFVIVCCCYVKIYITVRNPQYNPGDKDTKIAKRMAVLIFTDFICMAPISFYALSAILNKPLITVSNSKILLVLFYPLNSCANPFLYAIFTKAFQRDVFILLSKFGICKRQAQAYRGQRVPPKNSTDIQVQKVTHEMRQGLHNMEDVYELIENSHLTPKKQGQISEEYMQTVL
#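 cAMP rise detected as CNG-channel membrane depolarization by fluorescent dye (emission 590 nm), 30 min after compound, following 60 min dye loading containing 100 uM RO 20-1724 at room temperature. Cells: TSHR/CNG HEK 293, with parental CNG HEK 293 as control.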
# * marks the source's active call; other numbers are inactive results; i = inactive; ? = inconclusive; nt = not tested or not shown; [ ] = another dose, or the depositor's remark. Only part of the results is shown. The share of hits here may be higher or lower than overall.
# Start of the data: the first 15 compounds as a preview:
# Fields – AID923 | A488 autofl | Resorufin fluor | A647 autofl | TSHR ag
CCOC(=O)N1CCN(C2CC(=O)N(c3ccc(F)cc3)C2=O)CC1 (stereo not drawn)
  0.5% | nt | nt | nt | 0%
O=C(O)CC(C(=O)O)c1cn(Cc2ccccc2)c2ccccc12 (stereo not drawn)
  -1.0% | i | i | 3.4e-08 | 0%
Cc1noc(/C=C/N(C)C)c1S(=O)(=O)N1CCCC(C(=O)NC(C)c2ccccc2)C1 (stereo not drawn)
  3.9% | i | i | 3.3e-08 | 4%
C=CCc1cc(/C=N/n2cnnc2)cc(OCC)c1O
  3.7% | nt | nt | nt | 4%
Cc1ccc(-n2nc(C)c3cc(C(=O)O)sc32)cc1
  -1.1% | nt | nt | nt | 9%
Cc1ccc(-c2ccc(=O)n(CC(=O)N3CCN(c4cccc(C)c4)C(C)C3)n2)cc1 (stereo not drawn)
  -2.2% | i | i | 2.9e-08 | ?
COc1ccc(-n2nnnc2SCC(N)=O)cc1
  1.4% | i | i | 1.7e-08 | -6%
O=C1c2ccccc2-c2ncnc3cccc1c23
  -0.1% | i | i | 4.4e-09 | -1%
O=C(O)[C@@H](Cc1c[nH]c2ccccc12)C(=O)NO
  -0.5%[11.5 µM] | i | i | 1e-09 | 1%[11.4 µM]
COc1ccc(S(=O)(=O)NCCSCc2cccs2)cc1
  5.4% | i | i | 1e-09 | ?
Nc1nc2ccccc2[nH]1
  -0.9% | nt | nt | nt | 4%
COc1ccc(C(=O)NCc2cn3cccc(C)c3n2)cc1OC
  -0.9% | nt | nt | nt | -10%
CCC(C)NS(=O)(=O)c1ccc(OCC(=O)NCc2ccc3c(c2)OCO3)cc1 (stereo not drawn)
  -1.8% | i | i | 6.9e-08 | 3%
O=C(c1ccc2nc(N3CCCCC3)sc2c1)N1CCN(Cc2ccc3c(c2)OCO3)CC1
  3.5% | nt | nt | nt | 4%
Cc1ccc(-n2c(SCC(=O)NC3CCCCC3)nc3c(c2=O)SCC3)cc1
  -2.8% | nt | nt | nt | -9%

# This part in full, from the first entry:
# Fields – AID923 | A488 autofl | Resorufin fluor | A647 autofl | TSHR ag
CCOC(=O)N1CCN(C2CC(=O)N(c3ccc(F)cc3)C2=O)CC1 (stereo not drawn)
  0.5% | nt | nt | nt | 0%
O=C(O)CC(C(=O)O)c1cn(Cc2ccccc2)c2ccccc12 (stereo not drawn)
  -1.0% | i | i | 3.4e-08 | 0%
Cc1noc(/C=C/N(C)C)c1S(=O)(=O)N1CCCC(C(=O)NC(C)c2ccccc2)C1 (stereo not drawn)
  3.9% | i | i | 3.3e-08 | 4%
C=CCc1cc(/C=N/n2cnnc2)cc(OCC)c1O
  3.7% | nt | nt | nt | 4%
Cc1ccc(-n2nc(C)c3cc(C(=O)O)sc32)cc1
  -1.1% | nt | nt | nt | 9%
Cc1ccc(-c2ccc(=O)n(CC(=O)N3CCN(c4cccc(C)c4)C(C)C3)n2)cc1 (stereo not drawn)
  -2.2% | i | i | 2.9e-08 | ?
COc1ccc(-n2nnnc2SCC(N)=O)cc1
  1.4% | i | i | 1.7e-08 | -6%
O=C1c2ccccc2-c2ncnc3cccc1c23
  -0.1% | i | i | 4.4e-09 | -1%
O=C(O)[C@@H](Cc1c[nH]c2ccccc12)C(=O)NO
  -0.5%[11.5 µM] | i | i | 1e-09 | 1%[11.4 µM]
COc1ccc(S(=O)(=O)NCCSCc2cccs2)cc1
  5.4% | i | i | 1e-09 | ?

# 2 compounds from above, reduced to AID923.
mol | AID923
Cc1ccc(-n2nc(C)c3cc(C(=O)O)sc32)cc1 | -1.1%
Cc1ccc(-c2ccc(=O)n(CC(=O)N3CCN(c4cccc(C)c4)C(C)C3)n2)cc1 (stereo not drawn) | -2.2%

# The list goes on.
# Fields – AID923 | A488 autofl | Resorufin fluor | A647 autofl | TSHR ag
Nc1nc2ccccc2[nH]1
  -0.9% | nt | nt | nt | 4%
COc1ccc(C(=O)NCc2cn3cccc(C)c3n2)cc1OC
  -0.9% | nt | nt | nt | -10%
CCC(C)NS(=O)(=O)c1ccc(OCC(=O)NCc2ccc3c(c2)OCO3)cc1 (stereo not drawn)
  -1.8% | i | i | 6.9e-08 | 3%
O=C(c1ccc2nc(N3CCCCC3)sc2c1)N1CCN(Cc2ccc3c(c2)OCO3)CC1
  3.5% | nt | nt | nt | 4%
Cc1ccc(-n2c(SCC(=O)NC3CCCCC3)nc3c(c2=O)SCC3)cc1
  -2.8% | nt | nt | nt | -9%
CCN1CCCC1CNC(=O)c1ccc(Cc2nc3ccccc3[nH]2)cc1 (stereo not drawn)
  1.5% | nt | nt | nt | -2%
C=CCN(C(=O)Cn1c(C(=O)OC)cc2oc(C)cc21)c1ccccc1
  0.3% | i | i | 1.3e-08 | 6%[11.4 µM]
O=C(O)CC(Cn1cnnn1)c1ccccc1 (stereo not drawn)
  -1.0% | nt | nt | nt | -1%
COc1ccc(S(=O)(=O)Nc2ccccc2C(=O)NC(C)C)cc1OC
  -1.6% | nt | nt | nt | 2%[11.4 µM]
COc1ccc(N2CCN(c3ccc(NC(=O)C4CCCCC4)cc3C#N)CC2)cc1
  -0.7% | i | i | 1e-09 | -1%[11.4 µM]

# Further structures.
# Fields – AID923 | A488 autofl | Resorufin fluor | A647 autofl | TSHR ag
Cn1c(C(=O)OC(C(=O)NC2CCCC2)c2cccnc2)cc2sccc21 (stereo not drawn)
  -0.6% | i | i | 2.9e-08 | 17%
CCN(C(=O)c1cc2cc(OC)ccc2oc1=O)c1ccccc1
  1.9% | i | i | 2.7e-08 | 9%
CN1CCN(c2cc(-c3ccoc3)ncn2)CC1
  5.3% | i | i | 1e-09 | 10%
N[C@@]1(C(=O)O)CN[C@H](C(=O)O)C1
  -2.2% | nt | nt | nt | -1%
COc1ccc(N(CC(=O)NCc2ccccc2OC)S(=O)(=O)c2c(C)nn(C)c2C)cc1
  -2.3% | nt | nt | nt | -1%
O=C(O)CSc1nc2ccccc2o1
  -1.8% | i | i | 2.3e-08 | -3%
Cc1cc(=O)n2nc(N3CCC(C(=O)N4CCN(C)CC4)CC3)sc2n1
  1.2% | i | i | 1.5e-08 | 1%
Cc1cc(C)n(-c2nc3nonc3nc2-n2nc(C)cc2C)n1
  0.3% | i | i | 2.7e-08 | -2%
CCCCCOc1ccc(N2C(=O)CC(N(O)c3ccccc3)C2=O)cc1 (stereo not drawn)
  -1.7% | i | i | 3.4e-09 | -3%
Cc1cc(C)nc(SCCC(=O)N2CCOCC2)n1
  -0.9% | i | i | 8.4e-09 | -12%

# Next section.
# Fields – AID923 | A488 autofl | Resorufin fluor | A647 autofl | TSHR ag
CC12CN3CC(C)(CN(C1)C3c1ccc(Br)cc1O)C2 (stereo not drawn)
  nt | i | i | 1e-09 | nt
CCOC(=O)c1cnc(Nc2nc3ccccc3o2)nc1CSc1nnc(C)s1
  -1.9% | i | i | 1.1e-08 | 1%
CCOC(=O)C(C)Oc1cccc2c(=O)n(CC(=O)N3CCN(C(=O)OCC)CC3)ccc12 (stereo not drawn)
  -3.1% | nt | nt | nt | ?
CCOC(=O)c1ccccc1NC(=O)CC(C)CC(=O)O (stereo not drawn)
  0.7% | i | i | 8e-09 | 1%[11.4 µM]
COC(=O)C1=C(N)Oc2cc(C)[nH]c(=O)c2C1c1ccncc1 (stereo not drawn)
  nt | i | i | 3.1e-09 | nt
CCS(=O)(=O)Nc1c(C(=O)O)[nH]c2ccccc12
  3.5% | i | i | 1e-09 | -5%
O=C(OCC#CCSc1nnc(-c2ccc(Br)cc2)o1)c1ccco1
  0.9% | i | i | 2.9e-08 | 16%
Cc1ccc(S(=O)(=O)Cn2nnnc2C(c2ccc(F)cc2)N2CCCCC2)cc1 (stereo not drawn)
  -0.9% | i | i | 5e-08 | 10%
CCc1ccc2nc(NC(=O)c3ccc4c(=O)[nH]c(CN5CCOCC5)nc4c3)sc2c1
  2.0% | i | i | 1.8e-08 | -3%
COc1ccc(-c2nc(CCNC(=O)c3ccco3)cs2)cc1OC
  -2.9% | nt | nt | nt | ?

# The results go on.
# Fields – AID923 | A488 autofl | Resorufin fluor | A647 autofl | TSHR ag
COc1cccc(-c2cc(NCc3ccccc3)ncn2)c1
  -0.5% | i | i | 1e-09 | ?
CC(C)c1ccc(-c2nc(N3CCOCC3)[nH]c(=O)c2C#N)cc1
  -0.8% | i | i | 3.4e-08 | -1%
COc1ccc(N(CC(=O)N2CCCCC2)S(=O)(=O)c2ccccc2)c(OC)c1
  -0.2% | i | i | 1.7e-08 | 5%
O=C(Oc1ccccc1)N1CCC2(CC1)CCN(c1ccccc1)CC2
  -0.8% | i | i | 1e-09 | ?
Cn1cccc1Cc1nnc(SCC(=O)Nc2ccc3c(c2)OCO3)n1-c1ccc(F)cc1
  1.5% | nt | nt | nt | 2%
COC(=O)C1=C(C)N(C)C(=O)NC1c1cc(Cl)cc(Cl)c1OC (stereo not drawn)
  -2.0% | i | i | 2.2e-08 | nt
Cn1c(=O)c(-c2ccc(Cl)cc2)nc2cnc(Oc3ccccc3)nc21
  5.5% | i | i | 1.4e-09 | 5%
C=CCn1c(SCC(=O)NCc2ccco2)nc2sc3c(c2c1=O)CCCCC3
  -0.5% | i | i | 1e-09 | ?
CC(NC(=O)c1cccs1)C(c1cccs1)N1CCN(Cc2ccccc2)CC1 (stereo not drawn)
  -0.1% | i | i | 3.9e-08 | ?
COC(=O)C1=C(CN2CCc3ccccc32)NC(=O)NC1c1cc(C)ccc1C (stereo not drawn)
  0.1% | i | i | 1e-09 | -2%

# (cont.)
# Fields – AID923 | A488 autofl | Resorufin fluor | A647 autofl | TSHR ag
COc1ccccc1Nc1ncnc2c1cnn2-c1cccc(C)c1
  nt | i | i | 7e-09 | nt
CCN(CC)c1ccc(/C=N/n2c(C)cc(C)cc2=O)cc1
  9.0% | nt | nt | nt | 0%[11.4 µM]
O=C1C(Cl)=C(NCCCN2CCOCC2)C(=O)N1CCc1ccccc1
  0.5% | i | i | 8.7e-09 | 1%
COc1ccc(NC(=O)N2CC3(CCN(C(=O)c4cc(C(F)(F)F)cc(C(F)(F)F)c4)CC3)C2)cc1
  0.7% | i | i | 2.9e-08 | 7%
N#CCCn1c(=O)c(CCc2ccccc2)nc2cnc(Oc3ccccc3)nc21
  1.6% | i | i | 1.9e-09 | ?
c1ccc(-c2cnnc(SCc3cn4cccnc4n3)n2)cc1
  0.9% | i | i | 1e-09 | 1%
c1cncc(CSc2nnc(-c3cccnc3)n2Cc2ccco2)c1
  -1.1% | i | i | 1e-09 | -1%
CCCCOC(=O)N1CCOCCOCCN(C(=O)OCCCC)CCOCCOCC1
  -0.3% | i | i | 1e-09 | 16%

# High-throughput results (PubChem BioAssay)
